Source: PubChem (National Center for Advancing Translational Sciences (NCATS))
PINK1 modulator: A Quantitative High throughput Screen to Identify Chemical Modulators of PINK1 Expression. PINK1 immunofluorescence, high-content cytometry, 24 h. Potency, µM (titrated, usually from 76.6 µM), inactives show at the highest dose activation (PINK1 increase), hits mostly activators. actives 0.2% (n = 410,000). AID 624263, 2012; active = well fitted activation curve with a large enough effect; inconclusive = small, poorly fitted or top-dose-only effect; inactive = flat fitted curve, though single readings scatter; cell line not stated here;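 further: potency means the concentration at half of the fitted maximal effect; % of control where 0% means no effect; nearly all actives have a fitted effect of over 65% in size; a mitochondrial uncoupler was the plate control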
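PINK1 protein, normally rapidly degraded, was detected by immunofluorescence after 24 hour compound treatment of a stable cell line. Titration data (5 concentrations) came from laser-scanning cytometry, with CCCP-treated wells as controls.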
TRPML1 ag: qHTS for Agonists of the Human Mucolipin Transient Receptor Potential 1 (TRPML1); actives 0.12% (n = 410,000); TRPML1-expressing cells, Ca2+ dye fluorescence, FDSS; host cell line not named in the record; reference of the full effect not given here; activation, % (test concentration not listed); Mucolipin-1 (Homo sapiens), Q9GZU1; in the data active = activation above about 50%; inconclusive = about 30% to 50%; inactive = below about 30%; further: 0% is about no effect; the text of the record puts the active cut at 80%
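Tet-induced TRPML1-DL cells, 1,500 per well, cultured overnight, were loaded with a no-wash Ca2+ dye for 45–90 min. Calcium fluorescence was recorded on the FDSS for 110 s after compound addition, before the EC80 agonist (4 uM 54-4) was added.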
TRPML1 inh: qHTS for Inhibitors of the Human Mucolipin Transient Receptor Potential 1 (TRPML1); Mucolipin-1 (Homo sapiens), Q9GZU1; TRPML1-inducible cells, Ca2+ dye fluorescence, FDSS; hits give low values; inhibition of EC80 agonist-evoked calcium signal; activity change, negative = inhibition, % (concentration not given with the values); actives 0.02% (n = 390,000); in the data active means activity change below about -50%; inconclusive means about -30% to -50%; inactive means above about -30%;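 further: stimulus is agonist 54-4 at its EC80 concentration; on the % scale 0 is the no-effect control and ±100 the full control effect; compound concentration not given in the record; the text of the record puts the active cut at -80%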
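TRPML1-DL cells, Tet-induced overnight (~16 h, 37 °C) at 1,500 cells/well, were loaded with Ca8 no-wash dye plus quencher for 45-90 min at room temperature. Compounds were pinned during FDSS kinetic reading; agonist 54-4 at EC80 (4 uM final) then added.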
D2 ag: Beta-Arrestin HTS for Positive Allosteric Modulators of the Human D2 Dopamine Receptor: Agonists. D(2) dopamine receptor (Homo sapiens), P14416. DiscoveRx PathHunter D2 beta-arrestin, luminescence, 90 min; 100% = 57 uM dopamine signal. activation, % (concentration not given with the values). actives 0.084% (n = 360,000); in the data active = activation above about 40%; inconclusive = about 15% to 40%; inactive = below about 15%; further: compound concentration not given in the record; the text of the record calls up to 30% inactive
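Agonist mode: compounds alone added to overnight-plated D2 PathHunter cells for 90 min at 37 C, with 57 uM final dopamine (EC100) defining full response. Beta-arrestin recruitment detected by chemiluminescent reagent, read after 1 h at ambient temperature.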
Six1-Eya2 blk: qHTS Assay for Inhibitors of the Six1/Eya2 Interaction | Homeobox protein SIX1 (Homo sapiens) + Protein phosphatase EYA2 (Homo sapiens), … | AlphaScreen GST-Six1/His-Eya2 binding, biochemical; hits give low values; control for the full effect not named in the record | activity change, % (test concentration not listed) | actives 0.56% (n = 360,000); in the data active = activity change below about -65%; inconclusive = about -30% to -65%; inactive = above about -30%; further: on the % scale 0 is the no-effect control and ±100 the full control effect; compound concentration not given in the record
Target sequence (O00167 whole entry, looked up): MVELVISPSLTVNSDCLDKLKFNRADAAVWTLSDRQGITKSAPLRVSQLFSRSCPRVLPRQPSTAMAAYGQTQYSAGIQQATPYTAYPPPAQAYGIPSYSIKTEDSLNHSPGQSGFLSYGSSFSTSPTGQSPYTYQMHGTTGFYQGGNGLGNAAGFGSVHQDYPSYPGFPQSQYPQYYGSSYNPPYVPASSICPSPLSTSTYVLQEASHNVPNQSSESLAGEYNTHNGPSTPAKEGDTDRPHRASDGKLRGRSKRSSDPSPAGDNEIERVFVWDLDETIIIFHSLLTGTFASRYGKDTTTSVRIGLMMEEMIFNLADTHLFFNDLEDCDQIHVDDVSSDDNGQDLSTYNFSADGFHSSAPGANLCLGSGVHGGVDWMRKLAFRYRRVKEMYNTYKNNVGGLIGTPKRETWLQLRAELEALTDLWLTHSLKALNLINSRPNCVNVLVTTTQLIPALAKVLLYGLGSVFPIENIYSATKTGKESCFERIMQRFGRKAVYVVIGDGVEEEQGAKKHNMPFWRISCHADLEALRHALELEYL
Target sequence (Q15475 whole entry, looked up): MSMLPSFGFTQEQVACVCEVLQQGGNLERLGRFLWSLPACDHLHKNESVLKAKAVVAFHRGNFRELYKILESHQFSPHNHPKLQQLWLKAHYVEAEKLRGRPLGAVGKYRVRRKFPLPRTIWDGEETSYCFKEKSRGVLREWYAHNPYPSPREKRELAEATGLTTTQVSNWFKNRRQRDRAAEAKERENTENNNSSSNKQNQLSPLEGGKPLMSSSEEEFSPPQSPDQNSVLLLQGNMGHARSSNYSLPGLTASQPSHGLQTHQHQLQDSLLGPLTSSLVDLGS
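Homogeneous AlphaScreen proximity assay pairing GST-Six1 with His-tagged Eya2 (added as 5X mix: 250 nM and 500 nM) in 50 mM Tris pH 8.0, 300 mM NaCl, 1 mM TCEP. Glutathione donor and nickel acceptor beads; 1 h, 37 °C, dark.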
CtBP-E1A blk: qHTS Assay for Inhibitors of the CtBP/E1A Interaction. CtBP / adenovirus E1A interaction (AlphaScreen). AID 651724, 2012. activity change, % (concentration not given with the values). AlphaScreen GST-E1A/His-CtBP binding, 1536-well; hits give low values; control for the full effect not named in the record. actives 0.49% (n = 340,000); in the data active means activity change below about -65%; inconclusive means about -30% to -65%; inactive means above about -30%; further: on the % scale 0 is the no-effect control and ±100 the full control effect
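Protein mix (5X: 125 nM each GST-E1A, His-CtBP) was incubated with pinned compound 2 h at 37 deg C in dark, in 50 mM Tris pH 8.0 buffer with 300 mM NaCl. Glutathione donor and nickel acceptor beads followed; AlphaScreen signal read after 1 h.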
* = called active by the depositor; ? = inconclusive; / = not tested or not shown; & = joins results of further samples; [ ] = another dose, or the depositor's remark.

SMILES | PINK1 modulator | TRPML1 ag | TRPML1 inh | D2 ag | Six1-Eya2 blk | CtBP-E1A blk
CC(OC(=O)c1cc2sccc2n1C)C(=O)NCc1cccs1 (stereo not given) | 4.4%[38.3 µM] | -0.1 | 0.0 | -0.8 | -2.8 | 4.0
Cc1ccc(C2=Nc3ccccc3N(CC(=O)Nc3cccc(F)c3)C(=O)C2)cc1C | 1.2% | 2.4 | 0.5 | / | / | /
O=C(NNC(=S)Nc1cccc(C(F)(F)F)c1)c1ccncc1 | 3.2% | -0.4 | -0.6 | -5.1 | 2.8 | -14.0
Cc1cccc(/C=C2\CCC(C3CCCC3)C2=O)c1 (stereo not given) | ? | 0.3 | 2.7 | -1.7 | 0.0 | 0.0
COCCNC(=O)c1cc2n(n1)CCCN(Cc1ccc(C)cc1)C2=O | 1.3% | -0.2 | 8.0 | / | / | /
C/C(=N\NC(=O)CNc1cccc2ccccc12)c1ccc(Br)s1 | 0.9% | -0.4 | 2.6 | 10.4 | -0.1 | 8.5
Cc1ccc(-n2c(-c3c(-c4ccccc4)noc3C)n[nH]c2=S)cc1 | -7.7%[38.3 µM] | -1.0 | 1.6 | -1.4 | -9.0 | -6.6
Nc1[nH]nc2nc(N3CCOCC3)nc(-c3ccccc3)c12 | 1.7% | 1.8 | -5.6 | -1.7 | -4.1 | 3.3
O=C(CN1CCCCC1)NC(=O)NCc1ccccc1 | 3.7% | -0.3 | -9.9 | -3.7 | 4.6 | -4.6
COC(=O)[C@]1(C)CCC[C@@]2(C)C3CC[C@@]4(C)C[C@]3(CCC21)CC4=NO (stereo not given in full) | 6.2% | 1.5 | 62.0 | -3.4 | -3.5 | -1.6
COCCNC(=O)CCSCc1ccccc1F | -0.9%[38.3 µM] | -0.3 | 5.8 | 0.7 | 7.0 | 6.8
CCOc1ccc(OCC)c(C2C(C#N)=C(N)N(c3cccnc3)C3=C2C(=O)CC(C)(C)C3)c1 (stereo not given) | 2.4% | -0.3 | -0.9 | -4.8 | 3.1 | 10.0
CCOc1ccc(C(=O)NCC(=O)OC2CCOC2=O)cc1OCC (stereo not given) | -0.8% | 1.0 | -0.1 | -4.6 | 1.3 | -1.0
CCOc1cccc2cc(C(=O)NCc3ccc(C)cc3)c(=N)oc12 | 3.9% | 1.3 | 65.8 | -9.7 | -4.5 | -10.7
CCC(C)Sc1cccc(-c2nc3cnccn3c2NC2CCCCC2)c1 (stereo not given) | -1.6% | 1.1 | -2.0 | 1.5 | 27.2 | 37.0
CSCCC1NC(=O)N(CC(=O)Nc2cccc(S(=O)(=O)N3CCCCCC3)c2)C1=O (stereo not given) | -0.8% | -0.5 | -8.9 | 8.1 | -3.4 | -5.2
O=C(CSc1nc2ccsc2c(=O)n1Cc1ccccc1Cl)NCc1ccc(F)cc1 | 1.4% | 1.8 | 21.4 | / | / | /
CCOc1cc(/C=N\Nc2ccc([N+](=O)[O-])cc2)ccc1OCC(=O)Nc1ccc(C)c(C)c1 | ? | 0.2 | 9.2 | -10.2 | -1.9 | 2.4
Cc1cccc(C(=O)N2CCC(n3nnc4cc(F)ccc43)CC2)c1 | -1.0% | -0.2 | 17.0 | 3.3 | 2.8 | -2.1
CC(C)(C)C(=O)NNC(=O)c1ccc(Oc2cc(Cl)cc(Cl)c2)o1 | 3.6% | 0.5 | 17.1 | 3.5 | 2.2 | -2.4
O=C(c1nc(-c2ccc(Cl)cc2)n2c1CCCCC2)N1CCN(c2ccccc2F)CC1 | 0.6% | 0.5 | 16.9 | / | / | /
C#CCN(C[C@@H]1[C@@H](OC(=O)NC2CCCC2)[C@@H](OC(=O)NC2CCCC2)CN(C(=O)OC(C)C)N1C(=O)OC(C)C)S(=O)(=O)c1ccc(C)cc1 | 1.9% | 1.7 | 40.4 | -9.1 | 16.9 | -25.1
O=C(NC1CCCCCC1)c1ccc(-n2cnnc2)cc1 | -0.4% | -0.5 | 5.2 | -0.1 | 0.1 | -0.7
COc1ccc(/C=C/C(=O)NC(=S)Nc2ccc(N3CCN(C(C)=O)CC3)cc2)cc1 | 10.0% | 2.4 | -5.8 | -2.8 | 7.2 | 1.3
Cc1ccc(S(=O)(=O)N2CCN(CCOc3cccc(C)c3)CC2)cc1 | -0.1% | 22.2 | -5.6 | 2.3 | -7.1 | ?
CC1CCCC(NC(=O)COC(=O)c2c[nH]c(=O)[nH]c2=O)C1C (stereo not given) | 2.6% | -0.1 | 0.7 | -0.8 | 34.9 | 3.6
COc1ccc(NC(=O)Nc2c(C)n(-c3ccccc3)c(=O)n2C)cc1OC | -0.4% | 0.0 | 6.6 | -1.9 | 0.6 | 2.2
CCCS(=O)(=O)c1nc(S(=O)(=O)c2ccc(C)cc2)c(N2CCC(C(N)=O)CC2)s1 | 0.6% | 0.6 | -6.7 | -0.9 | 0.0 | 0.5
CCCC1=C(C(=O)OCC)C(c2ccc(OC)c(C)c2OC)C(C#N)=C(N)O1 (stereo not given) | 2.4% | 2.9 | 14.8 | -3.5 | 5.4 | 3.3
COc1ccc(C)cc1NC(=O)C1CCN(S(C)(=O)=O)CC1 | 0.6% | 0.4 | -2.3 | -3.5 | 1.6 | 11.3
Cn1nc(C(=O)Nc2cccc(C(F)(F)F)c2)c2ccccc2c1=O | 3.0% | 0.3 | -2.3 | -3.0 | ? | ?
CCc1nn(Cc2c(C)cc(C)cc2C)c(=O)c2cc3cc(C)ccc3n12 | 0.4% | -0.8 | -2.1 | / | / | /
CN(C)CC(C)(C)CNS(=O)(=O)c1ccc(Cl)c(Cl)c1 | -1.6% | -0.3&0.8 | -15.7&-16.8 | -2.1&-0.1 | 5.3&4.9 | -1.3&7.2
O=C(Cn1ncc2c(Cl)cccc21)NCc1cccc(F)c1 | 0.4% | 0.7 | 12.0 | / | / | /
CCN(Cc1ccccc1)S(=O)(=O)c1ccc(N2CCCCS2(=O)=O)cc1 | 0.3% | -0.6 | 4.8 | / | / | /
CC1(C)Cc2ccccc2C(c2cc3ccccc3oc2=O)=N1 | 9.1% | 0.1 | 14.1 | -4.1 | 0.9 | 3.9
Cc1cc(NC(=O)NC(=O)c2ccccc2)no1 | 1.0% | 0.6 | -6.9 | -4.6 | 0.0 | -17.5
O=C(CCNC(=O)c1ccc(Br)cc1)Nc1ccccc1N1CCCC1 | -0.2% | 1.7 | 6.6 | -1.8 | -11.0 | 7.1
COc1cccc(NC(=O)NC2CCCc3ccccc32)c1 (stereo not given) | 6.8% | 0.8 | 3.9 | 0.9 | 3.8 | 1.3
Cc1ccc2nc(Nc3ccccc3)c(/C=N/O)c(=O)n2c1 | -2.9% | 2.7 | -10.7 | 2.1 | -14.8 | -21.8
CC1(C(=O)Nc2nnc(C(C)(C)C)s2)Cc2ccccc2C(=O)O1 (stereo not given) | -1.5%[38.3 µM] | 0.5 | 27.8 | -0.2 | 0.7 | 7.9
O=C(Cn1nnc2c(cnn2-c2ccc(F)cc2)c1=O)OC1CCCCC1 | -0.3% | 0.3 | 18.6 | -3.5 | 4.5 | 5.2
CCOC(=O)c1sc2nc3c(SCCC(=O)O)cc(C(=O)c4cc(OC)ccc4O)cn3c(=O)c2c1C | 3.0% | -0.2 | 12.8 | -5.3 | ? | /
CCN(CC)CCCNC(=O)CN1N=C(c2ccc(OC)cc2)CCC1=O | 1.9%&-0.1% | -0.6&0.5 | 8.1&0.5 | -1.9 | 8.4 | 12.4
COC(=O)c1ccsc1NC(=O)CN1CCN(c2ccc(F)cc2)CC1 | 2.1% | 2.4 | 8.8 | 2.2 | ? | -22.2
O=C(C[n+]1ccn(CCCNP2(=O)C=C(c3ccccc3)OC(c3ccccc3)=C2)c1)c1cccs1 | -0.1% | -0.4 | 25.3 | -2.6 | 0.6 | 2.6
COC(=O)CC(=O)CSc1nc(C)cc(C)c1C#N | -1.4% | 2.6 | 2.3 | -3.9 | -10.3 | 0.0
COc1ccc(OCC(O)CNC(=O)c2ccc(Br)cc2)cc1 (stereo not given) | -13.8%[38.3 µM] | -0.2 | 1.5 | -1.7 | 4.0 | 5.4
COc1ccc(C2=Nc3ccccc3NC(=O)C2N(CCCn2ccnc2)C(=O)c2cccc(S(C)(=O)=O)c2)cc1 (stereo not given) | 0.6% | 1.6 | 7.1 | -4.8 | -2.2 | -7.8
CSCCC(NC(=O)c1ccccc1)C(=O)OCC(=O)NCc1ccco1 (stereo not given) | 1.7% | 1.0 | 19.4 | 1.4 | -6.1 | 0.9
Cc1ccc(S(C)(=O)=O)cc1C(=O)OCC(=O)N1CCCC1=O | -0.9% | 0.4 | -18.9 | -1.2 | -6.9 | 3.6
CCOC(=O)c1ccc(NC(=O)c2nc[nH]c2C(=O)N(C)CCO)cc1 | -1.6% | 0.5 | 19.3 | -3.7 | 9.0 | 2.2
CCOc1ccc(-c2cnc(NCc3ccc(OC)cc3OC)n2C)cc1 | -0.2% | -0.2 | 2.3 | / | / | /
CCc1ccc(NC(=O)CN2CCSc3ccc(S(=O)(=O)N4CCCC4)cc32)cc1 | 0.5% | 1.7 | 39.9 | / | / | /
O=c1c2ccccc2nnn1CSc1nnc(-c2cccs2)n1Cc1ccccc1 | ? | 6.4 | 9.6 | -0.7 | -1.2 | -6.9
CCn1c(=O)c(C(=O)Nc2ccc(C)cc2)c(O)c2ccccc21 | 8.9% | 0.4 | 1.4 | -3.0 | 9.6 | 5.4
CC(Oc1ccccc1F)C(=O)Nc1ccc(-c2nc3ccccc3s2)cc1 (stereo not given) | 4.3% | -0.3 | 8.7 | / | / | /
Cc1ccccc1-n1c(SCC(=O)NC2CC2)nc2ccccc2c1=O | 1.7% | -0.5 | 13.1 | -1.3 | 0.9 | 10.9
C[C@]12CC[C@H](O)C[C@@H]1CC[C@@H]1[C@@H]2CC[C@@]2(C)[C@H]1CCC(=O)[C@]21CCCO1 | 1.8% | -1.0 | 38.9 | -2.1 | -8.8 | -0.4

Record cards, from the list above. Order of screens: PINK1 modulator | TRPML1 ag | TRPML1 inh | D2 ag | Six1-Eya2 blk | CtBP-E1A blk
O=c1c2ccccc2nnn1CSc1nnc(-c2cccs2)n1Cc1ccccc1 is listed with ? | 6.4 | 9.6 | -0.7 | -1.2 | -6.9
CC(Oc1ccccc1F)C(=O)Nc1ccc(-c2nc3ccccc3s2)cc1 (stereo not given) is listed with 4.3% | -0.3 | 8.7 | / | / | /
